# Bioassay records (PubChem BioAssay)
# Vaccinia stage: blocks a specific stage of Vaccinia orthopoxvirus infection | activity change (mCherry), % (no concentration beside the values) | 89,000 tested, 0.01% active | Vaccinia-infected cells, mCherry/Venus stage reporter fluorescence; hits give low values; some inactives read as strong as hits | AID 1053133;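 active = mCherry past -33% and 40 or more points under the early reporter, replicates agreeing; inconclusive = past -33% without that gap or agreement; tested in A549 cells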;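 note: scaled between vehicle wells and reference inhibitor wells; 23 nL library stock went into each well; one replicate is shown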
# Vaccinia stage Venus: further read-out of Vaccinia stage, marked with its call; activity change (Venus), %; measured here: Venus reporter, other viral stage;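 negative = less Venus signal; first of two replicates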
# * = called active by the depositor; u = inconclusive; x = not tested or not shown; & = joins results of further samples.
# Values run as follows: Vaccinia stage | Vaccinia stage Venus
COc1ccc(S(=O)(=O)N(C)C[C@H]2Oc3c(NC(=O)C4CCOCC4)cccc3C(=O)N([C@@H](C)CO)C[C@H]2C)cc1
    4.7 | 1.3
O=C(Cc1ccccc1)N1CC(=O)N2[C@H](C1)[C@@H](c1ccc(-c3cccc(F)c3)cc1)[C@@H]2CO
    u | x
C[C@H](CO)N1C[C@H](C)[C@H](CN(C)C(=O)c2ccccn2)Oc2cc(C#CCC3CCCC3)ccc2S1(=O)=O
    u | x
O=C(c1cccnc1)N1C[C@@H]2[C@H](c3ccccc31)[C@H](CO)N2Cc1ccc2c(c1)OCO2
    4.5 | 7.2
C/C=C/c1ccc([C@H]2[C@@H](C#N)N(C(=O)c3cccnc3)[C@H]2CO)cc1
    4.0 | -1.3
C[C@H](CO)N1C[C@H](C)[C@H](CN(C)Cc2ccc(C(F)(F)F)cc2)Oc2ccc(NS(=O)(=O)c3cccs3)cc2CC1=O
    1.2 | -6.3
C[C@@H]1CCCCO[C@@H](CN(C)C)[C@H](C)CN([C@@H](C)CO)C(=O)c2cc(NC(=O)Nc3ccccc3)ccc2O1
    6.3 | 6.7
COc1ccc(S(=O)(=O)Nc2ccc3c(c2)C(=O)N([C@H](C)CO)C[C@H](C)[C@@H](CN(C)Cc2ccc(C(F)(F)F)cc2)OCCCC[C@H](C)O3)cc1
    u | x
COCCNC(=O)C[C@@H]1CC[C@H]2[C@@H](COC[C@@H](O)CN2Cc2cccc(-c3ccncc3)c2)O1
    9.1 | 5.6
C[C@H]1CN([C@@H](C)CO)C(=O)c2cccc(NS(=O)(=O)c3ccc(Cl)cc3)c2O[C@H]1CN(C)S(=O)(=O)c1ccccc1
    -0.5 | -10.1
CCCNC(=O)Nc1ccc2c(c1)OC[C@@H](C)N(CC1CCCC1)C[C@@H](C)[C@H](OC)CN(C)C2=O
    -0.6 | -0.4
CCC(=O)Nc1ccc2c(c1)C(=O)N(C)C[C@@H](OC)[C@H](C)CN(C(=O)CC)[C@@H](C)CO2
    6.9 | 5.1
C[C@@H]1CN([C@@H](C)CO)C(=O)c2cccc(NC(=O)c3cnccn3)c2O[C@H]1CN(C)Cc1ccncc1
    11.2 | 4.4
CN(C)C(=O)c1ccc(-c2ccccc2[C@H]2[C@@H](C#N)N(C(=O)C3CC3)[C@H]2CO)cc1
    2.6 | 8.5
CO[C@@H](CN(C)S(=O)(=O)c1cccc(Cl)c1)[C@@H](C)CN([C@@H](C)CO)S(=O)(=O)c1cccc(Cl)c1
    -29.5 | -22.3
COCC#Cc1ccc([C@@H]2[C@H]3CN(S(=O)(=O)c4ccccc4C)CCCCN3[C@H]2CO)cc1
    u | x
O=C(N[C@H]1CC[C@H](CC(=O)N2CCCCC2)O[C@@H]1CO)c1ccc2c(c1)OCO2
    2.7 | -4.6
CCCNC(=O)NC[C@@H]1[C@@H](c2ccc(C3=CCCCC3)cc2)[C@@H](CO)N1C(C)=O
    -7.9 | -9.6
CCC(=O)Nc1ccc2c(c1)OC[C@@H](C)N(C(=O)CC1CC1)C[C@H](C)[C@@H](OC)CN(C)C2=O
    -8.0 | -4.6
Cc1noc(C)c1NC(=O)Nc1ccc2c(c1)C(=O)N([C@H](C)CO)C[C@@H](C)[C@H](CN(C)S(=O)(=O)c1cn(C)cn1)OCCCC[C@H](C)O2
    13.1 | 8.7
CC(C)NC(=O)N(C)C[C@@H]1Oc2ccc(NC(=O)NC3CCCCC3)cc2C(=O)N([C@H](C)CO)C[C@H]1C
    6.9 | 8.2
C/C=C/c1ccc2c(c1)O[C@H](CN(C)C(=O)Nc1cc(F)ccc1F)[C@@H](C)CN([C@H](C)CO)S2(=O)=O
    -21.8 | -18.2
O=C(N[C@@H]1CC[C@H](CCNS(=O)(=O)c2ccc(F)cc2)O[C@H]1CO)c1ccccn1
    6.4 | 11.1
C[C@@H]1CN([C@@H](C)CO)C(=O)c2cccc(NS(=O)(=O)c3cccs3)c2O[C@@H]1CN(C)S(C)(=O)=O
    16.8 | 18.0
CN(C)C(=O)[C@@H]1[C@@H](CO)[C@@H]2Cn3c(ccc(C4=CCCCC4)c3=O)[C@H]1N2Cc1cccnc1
    15.0 | 4.1
CC(C)[C@H](C)NC(=O)N(C)C[C@@H]1OCc2ccccc2-c2c(n(C)c3ccccc23)C(=O)N([C@@H](C)CO)C[C@@H]1C
    24.8 | 31.2
CNC[C@@H]1Oc2ccc(NS(=O)(=O)c3ccc(Cl)cc3)cc2C(=O)N([C@@H](C)CO)C[C@@H]1C
    4.9 | 8.6
CN1CCN(C(=O)C2=C[C@@H](c3csc4ccccc34)C[C@@H](OCCCCO)O2)CC1
    12.8 | 1.1
COc1ccc(NC(=O)N(C)C[C@H]2Oc3ncc(-c4ccc(C#N)cc4)cc3C(=O)N([C@@H](C)CO)C[C@H]2C)cc1
    0.2 | 2.0
Cc1ccc(S(=O)(=O)Nc2ccc3c(c2)C(=O)N([C@@H](C)CO)C[C@H](C)[C@H](CN(C)C(=O)C2CCCCC2)OCCCC[C@@H](C)O3)cc1
    u | x

# Carrying on:
# Values run as follows: Vaccinia stage | Vaccinia stage Venus
CN1C(=O)C2C(C1=O)C1C=C(CCCO)C2C(c2ccc(CN3CCCC3)cc2)N1Cc1sc2ccccc2c1Cl (stereo not given)
    14.8 | 21.7
CC(C)c1cn(CC[C@H]2CC[C@H](NC(=O)Nc3cc(Cl)cc(Cl)c3)[C@@H](CO)O2)nn1
    -28.3 | -21.4
C[C@@H]1CN([C@H](C)CO)C(=O)Cc2cc(NS(=O)(=O)c3cn(C)cn3)ccc2O[C@H]1CN(C)C(=O)Nc1ccc2c(c1)OCO2
    6.9 | 3.8
CC=Cc1ccc2n(c1=O)C[C@H]1[C@H](CO)[C@@H](C(=O)OC)N(Cc3ccccc3)[C@@H]21 (mixture of isomers)
    -3.7 | 2.2
CC(C)NC(=O)N(C)C[C@@H]1Oc2c(NC(=O)C3CC3)cccc2C(=O)N([C@H](C)CO)C[C@H]1C
    14.5 | 2.3
COc1ccc(S(=O)(=O)N(C)C[C@H]2Oc3ccc(NC(=O)CCCCCC(=O)Nc4ccccc4N)cc3CC(=O)N([C@@H](C)CO)C[C@@H]2C)cc1
    24.1 | 14.6
COc1ccc(NC(=O)Nc2ccc3c(c2)C(=O)N([C@@H](C)CO)C[C@@H](C)[C@@H](CN(C)C(=O)Nc2ccc(F)cc2)O3)cc1
    6.1 | 8.9
CN1CCN(C(=O)C[C@H]2C[C@@H]3c4cc(NC(=O)C5CCC5)ccc4O[C@@H]3[C@@H](CO)O2)CC1
    4.1 | 6.5
Cc1ccccc1CN(C)C[C@H]1OCc2cn(nn2)CCCC(=O)N([C@@H](C)CO)C[C@@H]1C
    2.2 | 0.5
CCCNC(=O)N(C)C[C@@H]1Oc2ncc(/C=C/c3ccccc3)cc2C(=O)N([C@@H](C)CO)C[C@H]1C
    -0.6 | -2.6
O=C1N[C@@H](c2ccccc2)COCc2cn(nn2)CC[C@H]1Cc1ccc(Cl)cc1
    17.1 | 11.5
COc1ccc(C#Cc2ccc3c(c2)O[C@@H](CN(C)S(=O)(=O)c2ccccc2F)[C@H](C)CN([C@H](C)CO)S3(=O)=O)cc1
    -21.6 | -12.2
C[C@H](CO)N1C[C@H](C)[C@@H](CN(C)CC2CCCCC2)OCCCC[C@H](C)Oc2ccc(NS(=O)(=O)c3ccccc3)cc2C1=O
    u | x
C[C@@H]1CN([C@H](C)CO)C(=O)Cc2cc(NC(=O)Nc3cccc4ccccc34)ccc2O[C@@H]1CN(C)Cc1ccc(C(=O)Nc2ccccc2N)cc1
    6.2 | 9.9
C[C@@H]1CN([C@@H](C)CO)C(=O)c2cc(NC(=O)Nc3ccc(F)cc3)ccc2O[C@@H]1CN(C)Cc1ccc(Cl)c(Cl)c1
    u | x
CCC(=O)Nc1ccc2c(c1)OC[C@H](C)N(C(=O)Cc1ccccn1)C[C@@H](C)[C@H](OC)CN(C)C2=O
    10.7 | 6.5
C[C@H](CO)N1C[C@H](C)[C@H](CN(C)C)Oc2c(NC(=O)C3CC3)cccc2C1=O
    -1.6 | 2.5
COc1ccc(NC(=O)N(C)C[C@H]2Oc3c(NC(=O)c4nc5ccccc5s4)cccc3C(=O)N([C@H](C)CO)C[C@H]2C)cc1
    -11.1 | -0.5
COc1ccc(S(=O)(=O)N(C)C[C@H]2Oc3ccc(NC(=O)CCCN(C)C)cc3CC(=O)N([C@@H](C)CO)C[C@H]2C)cc1
    5.2 | 3.9
C[C@H](CO)N1C[C@H](C)[C@@H](CN(C)Cc2ccc(Cl)c(Cl)c2)Oc2c(NC(=O)NC3CCCCC3)cccc2C1=O
    -27.2 | -24.0
O=C(C[C@@H]1CC[C@H]2[C@@H](COC[C@H](O)CN2C(=O)Nc2ccc(C(F)(F)F)cc2)O1)NCCc1ccncc1
    -13.0 | 2.3
C[C@H]1CN([C@@H](C)CO)C(=O)CCCn2nncc2CO[C@H]1CN(C)C(=O)Cc1ccccc1
    16.7&7.9 | 10.6&7.0
C[C@H]1CN([C@@H](C)CO)C(=O)c2cc(NS(=O)(=O)c3ccc(F)cc3)ccc2O[C@@H]1CN(C)Cc1ccncc1
    11.7 | 5.5
O=C(CCN1CCCCC1)NCC[C@H]1CC[C@H](NC(=O)Nc2ccc(F)cc2)[C@H](CO)O1
    4.7 | 0.3
CCC(=O)N(C)C[C@@H]1Oc2ncc(-c3ccc(C(=O)N(C)C)cc3)cc2C(=O)N([C@@H](C)CO)C[C@@H]1C
    -3.8 | 1.7
C[C@@H]1CN([C@H](C)CO)C(=O)c2cccc(NC(=O)c3ccncc3)c2O[C@H]1CN(C)C(=O)NC1CCCCC1
    7.7 | 1.2
N#C[C@H]1[C@@H](c2ccc(C3=CCCC3)cc2)[C@H](CO)N1C(=O)C1CC1
    10.8 | 8.3
CCCNC(=O)C[C@H]1CC[C@H]2[C@@H](COC[C@@H](O)CN2C(=O)C2CCOCC2)O1
    6.1 | 9.5
C[C@H]1CN([C@@H](C)CO)C(=O)c2cc(NC(=O)Nc3cccc4ccccc34)ccc2O[C@H]1CN(C)C(=O)Nc1ccc(F)cc1
    18.0 | 15.5
COc1ccc(CN(C)C[C@@H]2Oc3ccc(NC(=O)CCCN(C)C)cc3C(=O)N([C@@H](C)CO)C[C@H]2C)cc1
    9.7 | 2.6

# Four structures from above, sorted by count of non-hydrogen atoms, lowest first:
# Values run as follows: Vaccinia stage | Vaccinia stage Venus
Cc1ccccc1CN(C)C[C@H]1OCc2cn(nn2)CCCC(=O)N([C@@H](C)CO)C[C@@H]1C
    2.2 | 0.5
CCC(=O)Nc1ccc2c(c1)OC[C@H](C)N(C(=O)Cc1ccccn1)C[C@@H](C)[C@H](OC)CN(C)C2=O
    10.7 | 6.5
C[C@H](CO)N1C[C@H](C)[C@@H](CN(C)Cc2ccc(Cl)c(Cl)c2)Oc2c(NC(=O)NC3CCCCC3)cccc2C1=O
    -27.2 | -24.0
C[C@H]1CN([C@@H](C)CO)C(=O)c2cc(NC(=O)Nc3cccc4ccccc34)ccc2O[C@H]1CN(C)C(=O)Nc1ccc(F)cc1
    18.0 | 15.5

# (cont.)
# Values run as follows: Vaccinia stage | Vaccinia stage Venus
CNC[C@H]1Oc2ccc(NC(=O)Nc3ccc4c(c3)OCO4)cc2CC(=O)N([C@H](C)CO)C[C@@H]1C
    15.7 | 19.2
CC(C)CC#Cc1ccc([C@@H]2[C@H]3CN(C(=O)NC4CCCC4)CC(=O)N3[C@H]2CO)cc1
    u | x
CCCC(=O)N1C[C@@H]2[C@H](c3ccccc31)[C@@H](CO)N2C(=O)Nc1ccc(F)cc1
    5.8 | 4.3
C[C@H]1CN([C@@H](C)CO)C(=O)Cc2cc(NC(=O)Nc3ccccc3)ccc2O[C@H]1CN(C)C
    -5.4 | -5.5
C[C@@H]1CCCCO[C@@H](CN(C)Cc2ccc(C(=O)O)cc2)[C@H](C)CN([C@H](C)CO)C(=O)c2cc(NC(=O)CCC(F)(F)F)ccc2O1
    17.3 | 11.5
O=C(C1CCCC1)N1CCCCN2[C@H](CO)[C@H](c3ccc(C#CC4CC4)cc3)[C@H]2C1
    u | x
N#C[C@@H]1[C@H](c2ccc(-c3ccccc3F)cc2)[C@@H](CO)N1C(=O)Cc1ccccc1
    -26.5 | -22.3
CN(C)C(=O)c1cccc(-c2ccc([C@H]3[C@H]4CN(CCC(F)(F)F)CCCCN4[C@H]3CO)cc2)c1
    14.1 | 0.7
C[C@@H]1CCCCO[C@@H](CN(C)S(=O)(=O)c2cn(C)cn2)[C@@H](C)CN([C@@H](C)CO)C(=O)c2cc(NS(=O)(=O)c3ccccc3)ccc2O1
    15.5 | 10.7
O=C(C[C@@H]1CC[C@@H](NC(=O)Nc2cc(F)ccc2F)[C@H](CO)O1)Nc1ccccc1
    -8.8 | -5.4
N#C[C@H]1[C@@H](c2ccccc2-c2ccccc2)[C@@H](CO)N1c1ncc(-c2ccccc2)s1
    10.7 | 7.7
C[C@H]1CN([C@@H](C)CO)S(=O)(=O)c2ccc(C#CC3CCCC3)cc2O[C@@H]1CN(C)C(=O)Cc1ccncc1
    -28.5 | -21.3
Cc1cccc(S(=O)(=O)N2C[C@@H](O)COC[C@H]3O[C@@H](CC(=O)N4CCN(C)CC4)CC[C@@H]32)c1
    -0.4 | 11.8
COCC(=O)NC[C@H]1[C@@H](c2ccccc2)[C@H](CO)N1C(C)=O
    16.9 | 5.2
O=C(C[C@H]1C[C@H]2c3cc(NS(=O)(=O)c4ccc(F)cc4)ccc3O[C@H]2[C@H](CO)O1)NCc1cccc(F)c1
    -21.0 | -16.1
CO[C@@H]1CN(C)C(=O)c2ccc(NC(C)=O)cc2OC[C@H](C)N(S(=O)(=O)c2cn(C)cn2)C[C@H]1C
    11.8 | 4.3
C[C@H]1CN([C@@H](C)CO)C(=O)c2cc(NC(=O)Cn3cnnn3)ccc2O[C@@H]1CN(C)Cc1ccncc1
    -18.8 | -18.1
O=C(C[C@H]1CC[C@@H]2[C@H](COC[C@H](O)CN2Cc2cccc(F)c2)O1)NCc1cccc(F)c1
    -10.3 | -3.7
C[C@@H]1CN([C@H](C)CO)C(=O)c2cccc(NC(=O)C3CCOCC3)c2O[C@H]1CN(C)Cc1ccc(C(=O)O)cc1
    0.6 | 1.6

# This is a subset; count on the stated rates, not on these rows.
